# Kir21 inh – Kir2.1 (mouse) channel inhibition; P35561; HEK293-Kir2.1, FluxOR thallium flux fluorescence; hits give low values; B-score at 10 µM; hit rate 0.85% among 310,000;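 active = fluorescence ratio B-score at or below minus 3 SD of library scores, with starting-brightness B-score within 2 SD, cut at about -4.2 in these data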;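 also: channel flux triggered by added potassium and thallium sulfate stimulus; B-score of peak minus minimum fluorescence over baseline after thallium stimulus; more negative B-score means stronger Kir2.1 block with less thallium influx; some compounds called inactive have numbers as strong as hits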
# Target sequence (P35561 whole entry, looked up): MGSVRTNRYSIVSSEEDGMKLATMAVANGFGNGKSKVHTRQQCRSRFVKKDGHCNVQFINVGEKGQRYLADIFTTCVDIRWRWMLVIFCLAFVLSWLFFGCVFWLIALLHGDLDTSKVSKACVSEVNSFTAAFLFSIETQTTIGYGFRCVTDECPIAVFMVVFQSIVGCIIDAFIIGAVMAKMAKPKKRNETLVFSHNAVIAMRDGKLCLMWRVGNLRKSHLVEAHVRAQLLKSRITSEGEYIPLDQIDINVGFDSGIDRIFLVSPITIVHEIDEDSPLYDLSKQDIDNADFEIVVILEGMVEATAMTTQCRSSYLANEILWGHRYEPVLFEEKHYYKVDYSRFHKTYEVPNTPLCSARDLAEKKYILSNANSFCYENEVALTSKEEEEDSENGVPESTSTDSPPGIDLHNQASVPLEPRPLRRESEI
# Starred values were filed as active, the others as inactive.
# A first look:
SMILES,Kir21 inh
COc1cc(/C=N/Nc2ccc(Cl)c(C(=O)O)c2)ccc1OCC(=O)N1C(C)CCCC1C (stereo not drawn),1.2
O=C(CCS(=O)(=O)Cc1ccccc1F)NCc1ccccc1Cl,2
Cc1cc2cc(CN(CC3CCCO3)C(=S)Nc3ccccc3)c(=O)[nH]c2cc1C (stereo not drawn),2.4
COc1ccc(CCNC(=O)c2cc3cc(F)ccc3nc2C)cc1OC,0.61

# This part in full, previewed entries included:
SMILES,Kir21 inh
COc1cc(/C=N/Nc2ccc(Cl)c(C(=O)O)c2)ccc1OCC(=O)N1C(C)CCCC1C (stereo not drawn),1.2
O=C(CCS(=O)(=O)Cc1ccccc1F)NCc1ccccc1Cl,2
Cc1cc2cc(CN(CC3CCCO3)C(=S)Nc3ccccc3)c(=O)[nH]c2cc1C (stereo not drawn),2.4
COc1ccc(CCNC(=O)c2cc3cc(F)ccc3nc2C)cc1OC,0.61
FC(F)(F)c1ccc(-n2ccnc2)nc1,-0.14
CCCCOC(=O)C1[C@H]2C(=O)N(Cc3cccs3)C[C@]23C=C[C@H]1O3 (stereo partly drawn),0.72
Cc1cc(C)c(S(=O)(=O)N(C)CC(=O)N2CCCCC2)c(C)c1,-0.34
O=C(Cn1c2ccccc2c(=O)c2ccccc21)N/N=C/c1ccc(N2CCCC2)c([N+](=O)[O-])c1,-0.01
CC1(CCc2ccccc2)NC(=O)N(CC(=O)O)C1=O (stereo not drawn),-1.5
Cc1ccc(-n2ncc3c(N4CCN(c5ccc(F)cc5)CC4)ncnc32)c(C)c1,-1.5
O=C(/C=C/c1ccccc1[N+](=O)[O-])NCCN1C(=O)S/C(=C\c2ccc(F)cc2)C1=O,-1.3
C/C(=C\[C@@H](NP(=O)(c1ccccc1)c1ccccc1)c1ccccc1)CO[Si](c1ccccc1)(c1ccccc1)C(C)(C)C,0.63
COc1cccc(NCc2cc(=O)oc3cc(C)c(O)cc23)c1,1.9
O=C(NC1CCCCC1)C1CCC(CNS(=O)(=O)c2ccccc2)CC1 (stereo not drawn),0.92
COc1ccccc1CC(=O)N1CCN(c2ccc([N+](=O)[O-])cc2)CC1,-0.35
COc1ccccc1NC(=S)N(CCCN1CCOCC1)Cc1cn(C)c2ccccc12,-1.2
COc1ccccc1Nc1nc(C)cc(C)c1C(N)=O,0.07
Cc1ccc(NC(=O)C2CC(=O)N(CCc3ccccc3)C2)c(C)c1 (stereo not drawn),-0.91
CCOC(=O)c1ccc(N2C(=O)C=CC2=O)cc1,-0.38
Cc1ccccc1NC(=O)N1CCN(C(=O)c2ccco2)CC1,0.28
O=C(NC(Cc1ccccc1)C(=O)O)/C(=C\c1ccccc1F)NC(=O)c1ccccc1 (stereo not drawn),0.49
COc1cccc(/C=C2\SC(=O)N(CC(=O)NC3CCS(=O)(=O)C3)C2=O)c1 (stereo not drawn),-0.48
Cc1ccc(NC(=O)CSc2n[nH]c(-c3ccncc3)n2)cc1C,0.54
Cn1c(SCC#N)nnc1-c1cccnc1,-0.68
Cc1c(OCC(=O)N[C@H](C(=O)O)c2ccccc2)ccc2c3c(c(=O)oc12)CCCC3,2.3
SMILES,Kir21 inh
CCOc1cc(CO)c(Br)cc1OCC(=O)O,2.6
O=C(COc1ccccc1)N1CCN(c2ncccn2)CC1,-0.91
COc1ccc(CC(=O)NNC(=S)NCC2CC2)cc1OC,-0.32
CCCOc1ccc(/C=N/NC(=O)c2c(-c3ccccc3)noc2C)cc1OC,-1.1
COc1ccc(-n2c(=O)c3c4c(sc3n(CC(=O)Nc3cc(C)[nH]n3)c2=O)CCC4)c(OC)c1,0.01
COc1ccc(N2C(S)=C(C#N)C(=O)NC23CCCCC3)cc1,0.77
COc1ccc(NC(=O)CN(C)C(=O)CCC2CCCC2)cc1,-0.69
C/C(=N\Nc1cccc2cccnc12)c1ccc(N)cc1,-0.81
CCOc1ccccc1/C=N/NC(=O)CSc1n[nH]c(=O)[nH]c1=O,0.03
O=C(CN1C(=O)NC2(CCc3ccccc3C2)C1=O)NCc1ccco1 (stereo not drawn),-0.2
COc1ccc(C2C(C(=O)Nc3ccccn3)=C(C)Nc3ncnn32)c(OC)c1 (stereo not drawn),-0.24
COCCn1c(Sc2ccc(C)cc2)nc2c1c(=O)[nH]c(=O)n2C,-0.2
OCc1cn(-c2ccccc2)nc1-c1cccnc1,-0.72
O=[N+]([O-])c1cc(Cl)ccc1NCCNS(=O)(=O)c1ccccc1,-0.55
CCCN1CN(Cc2ccco2)c2nc3ccccc3n2C1,-0.52
CCOC(=O)c1ccccc1N1C(=O)CSC1=S,-3.8
Cc1ccc(OCc2nnc(SCC(=O)O)n2-c2ccccc2)cc1,-0.1
COc1ccccc1NC(=O)CCN1CCCCCC1,-0.13
O=C1COc2ccc(C(=O)COC(=O)CNC(=O)c3ccco3)cc2N1,-1.5
C/C(=N/NC(=O)c1ccc(C)s1)c1cccc(NC(=O)COc2ccc(Cl)cc2C)c1,0.19
CNC(=O)c1cc2ccc(OC)cc2oc1=O,-0.83
COC(=O)CN(Cc1ccccc1)S(=O)(=O)c1ccc(OC)c(OC)c1,-1.6
O=C(CNC(=O)c1ccc(Br)o1)NCC1CCCO1 (stereo not drawn),4.2
CSCCC(NC(=O)c1ccccc1Cl)C(=O)NC1CCN(Cc2ccccc2)CC1 (stereo not drawn),-0.75
COc1cc2cc(CN(CCCO)S(=O)(=O)c3ccccc3Cl)c(=O)[nH]c2cc1OC,-0.54

# Reformatted with each value named: entries from further up
O=C(CN1C(=O)NC2(CCc3ccccc3C2)C1=O)NCc1ccco1 (stereo not drawn)
- Kir21 inh = -0.2

COc1ccc(C2C(C(=O)Nc3ccccn3)=C(C)Nc3ncnn32)c(OC)c1 (stereo not drawn)
- Kir21 inh = -0.24

COCCn1c(Sc2ccc(C)cc2)nc2c1c(=O)[nH]c(=O)n2C
- Kir21 inh = -0.2

OCc1cn(-c2ccccc2)nc1-c1cccnc1
- Kir21 inh = -0.72

# Later entries
SMILES,Kir21 inh
CCCCOc1ccc(-c2ncc(Cl)cn2)cc1,-0.5
CCN1CCN(S(=O)(=O)c2ccc(Cl)c(C(=O)NC(C)(C)C)c2)CC1,0.03
O=C(COc1ccc(S(=O)(=O)NCc2ccccc2)cc1Cl)NCC1CCCO1 (stereo not drawn),-1.3
O=C(O)CN1C(=O)C2(OCCCO2)c2ccccc21,-0.55
CC1CCC(NC(=O)c2cc(S(=O)(=O)N3CCCCC3)c[nH]2)CC1 (stereo not drawn),0.02
CCCCN(C(=O)Cn1nnc2ccccc21)C(C(=O)NCc1ccco1)c1ccncc1 (stereo not drawn),-1.2
O=C(CCc1nc(-c2ccccc2F)no1)Nc1cccnc1,0.2
CCS(=O)(=O)N1CCCC(C(=O)c2ccc(OC)cc2C)C1 (stereo not drawn),-0.43
Cc1coc2c(C)c3oc(=O)cc(-c4ccccc4)c3cc12,0.02
CC(C)NC(=O)c1[nH]nc2c1CCc1ccccc1-2,0.07
O=S1(=O)N=CN(Cc2cccc(F)c2)c2ccccc21,0.55
Cc1ccc(C2(C)CC(C)(C)N(C(=O)CSc3nnc(C)s3)c3ccccc32)cc1 (stereo not drawn),-2
Cc1oc(-c2cccc(Cl)c2)nc1CSCC(=O)O,1
CCC(CC)C(=O)Nc1c2c(nn1-c1ccc(C)cc1)CS(=O)(=O)C2,1.1
O=C(CSC1=NCCN1)NC12CC3CC(CC(C3)C1)C2,0.03
CC(C)c1nc(SCC(=O)N2CCCc3ccccc32)c2c(=O)n(C)c(=O)n(C)c2n1,2.6
Cc1csc(NC(=O)CCCc2cccs2)n1,0.73
CC(C)COC(=O)CCNc1n[nH]c(=O)[nH]c1=O,-0.38
Cc1cc(/C=N/NC(N)=S)c(C)n1-c1ccc(Cl)cc1,-1.1
CCC1CCC2(CC1)NC(=O)N(CC(=O)Nc1cc(C)on1)C2=O (stereo not drawn),0.97
CCC(=O)n1nc(-c2ccc(Cl)cc2)nc1N,-0.69
CCOc1ccccc1OCCCCN1CCCC1,-0.4
O=C(NCC(=O)N1CCc2ccccc2C1)c1ccccc1Cl,1
CNC(=S)N1CCN(S(=O)(=O)c2ccc3ccccc3c2)CC1,-0.54
O=C(O)CC(=O)Nc1ccc(Oc2ccc(C(F)(F)F)cn2)c(Cl)c1,-0.09
SMILES,Kir21 inh
CC(C)Oc1ccc(CSc2ncn[nH]2)cc1,0.16
N#CC1=C(N)C2=CCCC[C@H]2[C@H](c2ccccc2)C1(C#N)C#N,-0.08
O=C1C2C3C=CC(C4CC34)C2C(=O)N1c1cc(Cl)ccn1 (stereo not drawn),-0.52
COc1ccc2cc(C(=O)N(C)Cc3ccccc3)[nH]c2c1,0.87
O=C(Nc1ccncc1)c1ccc2c(c1)OCCO2,-0.5
CCCOc1ccc(C(=O)Nc2ccc(S(=O)(=O)N3CCN(C)CC3)cc2)cc1,0.48
CCOC(=O)CNC(=O)CNC(=O)c1ccc(OCC(C)C)cc1,0.06
COc1ccc(/C(O)=C2/C(=O)C(=O)N(c3ncccn3)C2c2ccc(OC)cc2)cc1 (stereo not drawn),-0.9
O=C(Cn1c(C(=O)NCC2CCCO2)cc2sccc21)c1ccccc1 (stereo not drawn),-0.02
O=C(CSc1ccc(-c2ccccc2)nn1)NC1CCCCC1,-0.06
O=C(COc1ccccc1)Nc1cccc(-c2cn3cccnc3n2)c1,0.35
O=C(Nc1ccc(F)cc1)c1cn(-c2ccccc2)nc1-c1ccncc1,-0.32
CCc1sc(C(=O)Nc2ccsc2C(=O)OC)cc1Br,-1.4
Cc1ccc2nc(C)c(C(=O)N/N=C/c3ccc(C(=O)O)cc3)cc2c1,-0.89
O=C(Nc1ccn(Cc2c(F)c(F)cc(F)c2F)n1)c1cccc(Cn2cc([N+](=O)[O-])cn2)c1,0.24
CCOc1cc2c(cc1OCC)C(C(=O)O)C(c1cc(OC)c(OC)c(OC)c1)N(C)C2=O (stereo not drawn),0.78
COc1ccc(N(CC(=O)Nc2ccc3c(c2)OCO3)S(=O)(=O)c2ccccc2)c(OC)c1,-1
COc1c(Br)cc(Br)cc1/C=C1/C(=O)N=C(N)N1C,1.1
COc1cccc(/C=N/NC(=O)c2ccc(N3CCCC3=O)cc2)c1,0.79
COc1ccc(C(=O)O/N=C(\N)Cc2ccc(Cl)cc2Cl)cc1OC,-0.15
CCCOc1ccc(N2C(=O)CC(SC(=NCC)NCC)C2=O)cc1 (stereo not drawn),-0.39
CCOc1ccc(Nc2nc3cc(S(=O)(=O)CC)ccc3o2)cc1,-1.3
COc1ccc(-c2noc(C(C)NS(=O)(=O)c3ccc(NC(C)=O)cc3)n2)cc1 (stereo not drawn),0.16
CC1(C)Cc2c(sc(/N=C/N3CCCCC3)c2C#N)C(C)(C)N1,0.31
COc1ccc(-c2csc(NC(=O)C3CCCO3)n2)cc1 (stereo not drawn),-1
SMILES,Kir21 inh
COC(=O)CSc1nc2cc(Cl)ccc2c(=O)n1C1CCCC1,0.54
Cc1cccc(C)c1OCc1n[nH]c(=S)n1-c1ccccc1,-1.4
Cc1[nH]c2ccc(C(=O)NC3CCC(C)CC3)cc2c1C (stereo not drawn),1.4
CN(C)c1ccc(NC(=O)Nc2cccc3ccccc23)cc1,1.5
COc1ccc(CNC(=O)C(c2ccco2)N(Cc2cccs2)C(=O)Cc2cccs2)cc1 (stereo not drawn),-0.19
O=C(Cc1csc(NC(=O)Nc2ccc(Cl)cc2)n1)NCc1cccnc1,-0.73
CCS(=O)(=O)Nc1ccc(-c2nnc(SCC(=O)OC)o2)cc1,-1.7
Cc1ccc(/C=C2/NC(=O)N(Cc3ccccc3F)C2=O)s1,-0.01
Cc1ccc(/C=C(\NC(=O)c2ccccc2)C(=O)NCCN2CCOCC2)o1,1.2
C=CCn1c(CCNC(=O)c2cccs2)nnc1SCC(=O)c1cccc([N+](=O)[O-])c1,0.08
Cc1noc(C)c1CSCC(=O)Nc1ccc(S(=O)(=O)C(F)F)cc1,-0.07
CCN(CC)c1ccc(/C=N/n2c(-c3ccccc3Br)n[nH]c2=S)cc1,-1.4
COc1ccc(C(C)NC(=O)C2CCCC2)cc1 (stereo not drawn),1.6
Cc1onc(-c2ccccc2Cl)c1C(=O)NCCn1ccc2ccccc21,-1.4
O=C(/C=C/Nc1ccc(F)c(F)c1)c1cccs1,0.51
CN1CCN(C(=O)C(N)Cc2ccccc2)CC1 (stereo not drawn),0.15
Cc1ccc(C(=O)N2N=C(c3cccc(NS(C)(=O)=O)c3)CC2c2cccs2)cc1 (stereo not drawn),-0.33
COc1ccccc1CNC(=O)COC(=O)Cc1c(F)cccc1Cl,-0.47
O=c1c2ccccc2nc(-c2ccccc2)n1CCCN1CCOCC1,0.02
Cc1ccc(NC(=O)C2(c3ccc([N+](=O)[O-])cc3)CCCC2)cc1,-1.9
CC1CCCC(C)N1C(=O)CSc1nnc(CSc2ncccn2)n1C (stereo not drawn),0.56
Cc1ccccc1OCCOCCN1CCCCCC1,-1.7
CC(CCc1ccccc1)NC(=O)CCCCCNc1nc(=S)[nH]c2ccccc12 (stereo not drawn),0.67
CSc1nc(C)cc(SCC(=O)Nc2ccccc2)n1,0.04
O=C(NCCN1CCOCC1)c1ccc2c(c1)N(Cc1ccc(F)cc1)C(=O)c1ccccc1S2(=O)=O,-0.29
Cc1cnc(C(=O)OCC(=O)c2ccc(C3CCCCC3)cc2)cn1,0.09
COc1ccc(OC)c(NC(=O)C(CCS(C)(=O)=O)NC(C)=O)c1 (stereo not drawn),1.6
O=C(c1cc2ccccc2oc1=O)N(Cc1cccs1)Cc1ccccc1Cl,1.8
CCOC(=O)c1c(CS(=O)(=O)c2ccccc2)n(C)c2cc(Br)c(O)cc12,0.67
FC(F)(F)c1nc(N2CCCC2)ncc1-c1nnnn1-c1ccccc1,0.01

# Shown as labelled records: part of the list above.
COc1ccccc1Nc1nc(C)cc(C)c1C(N)=O
  Kir21 inh: 0.07

Cc1ccc(NC(=O)C2CC(=O)N(CCc3ccccc3)C2)c(C)c1 (stereo not drawn)
  Kir21 inh: -0.91

# An excerpt, and most or all hits are left out here.
